LANA-nucl inh = inhibitors of KSHV LANA-nucleosome binding, primary screen, biochemical, fluorescence polarization, FITC-LANA1-23, chicken nucleosomes. FITC-LANA1-23 / chicken nucleosome fluorescence polarization; stronger effect = lower value. z-score (no concentration beside the values). 51,000 tested, 0.3% active. AID 720717, 2013;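 active means both repeat wells score below -2 in polarization z-score versus plate sample wells, excluding overly bright wells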;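 further: 100 nL library stock added to about 30 µL; numbers are from one replicate; some results filed as inactive read as strong as hits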
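test system = FITC-LANA peptide and chicken nucleosomes | amount = 240 nM purified chicken nucleosomes (480 nM peptide binding sites), final | reagent = 50 nM FITC-LANA1-23 probe | medium = TEN-BT buffer, pH 7.5 | doses = single compound addition by pin transfer, 100 nL per well | timing = 10–45 min, room temperature | detection = fluorescence polarization | repeats = duplicate plates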
BasE inh = BasE siderophore enzyme inhibitors, primary screen, biochemical, Acinetobacter baumannii ATCC 17978, fluorescence polarization; purified BasE, fluorescence polarization binding displacement; inhibition, % (concentration not given with the values); 84,000 tested, 0.1% active;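 active means both replicates above 25% with normal brightness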;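 further: 0% = negative plate control signal and 100% = positive plate control signal; stock transfer was 100 nL into about 30 µL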
Starred values were filed as active, the others as inactive; nt = no result given. An excerpt, so the mix of outcomes need not match the whole.

SMILES	LANA-nucl inh	BasE inh
CCOC(=O)C1CCCCN1Cc1ccc(Br)cc1 (stereo not given)	-1.03	2.3
COc1ccc(C(=O)Cn2nnc(-c3ccccc3)n2)cc1	-0.604	-0.6
CC1=C(C)CC(C(=O)Nc2ccc(NC(=O)NC3CCCCC3)cc2)C(C(=O)O)C1 (stereo not given)	-0.273	0.3
COc1cc(/C=[N+](/C)[O-])ccc1OCc1ccc(F)cc1	-0.893	nt
N#CC1=C(N)Oc2n[nH]c(-c3ccccc3)c2C1C1CC=CCC1 (stereo not given)	nt	2.5
CC(OC(=O)c1ccccn1)C(=O)Nc1ccc(C(F)(F)F)cc1 (stereo not given)	nt	2.8
CC1CC(C)CN(C(=O)Cn2c(=O)cnc3ccccc32)C1 (stereo not given)	nt	2.1
c1ccc(Cn2c(C3CCCO3)nc3ccccc32)cc1 (stereo not given)	-0.584	0.3
COC(=O)/C=C1\SCC(=O)N1CC(=O)c1ccccc1	nt	-33.1
COC(=O)CN(Cc1ccccc1)S(=O)(=O)c1ccc(C)cc1	nt	0.8
N=C1c2ccccc2CN1CCN1C(=O)S/C(=C\c2ccc(F)cc2)C1=O	nt	1.4
O=C1C(O)C(O)C(=O)N1Cc1ccccc1 (stereo not given)	nt	0.7
O=C(Nc1ccc2oc(=O)ccc2c1)c1cccc(F)c1	-0.739	1.1
CN(Cc1ccccc1)C(=O)c1cc(S(=O)(=O)N2CCCCC2)c[nH]1	-2.17	-2.8
Cc1cc(C)n2cc(CSc3ccccn3)nc2n1	nt	0.1
Cc1ccc(C)c(Cn2nc3nc(C)nc(N4CCC(CNC(=O)OC(C)(C)C)CC4)c3n2)c1	-0.0395	1.6
CC(C)CCNC(=O)c1cc(-c2ccccc2)n[nH]1	nt	-1.1
O=C(O)CCn1cnc2ccccc21	0.46	1.7
CCOC(=O)c1cc(-c2csc(-c3ccc(C(F)(F)F)cc3)n2)on1	0.138	1.4
CCc1ccc(NCN2C(=O)C3=C(CCCC3)C2=O)cc1	-0.202	-0.1
O=C(CN1CCOCC1)n1c2ccccc2c2ccccc21	0.562	-8.7
CN(C)C(=O)c1cn(-c2ccccc2)c(=O)c2ccccc12	2.26	nt
COc1ccc(C)cc1NC(=O)c1cc2ccccc2o1	1.33	-4.2
CC(C)c1cc(NC(=O)COC(=O)c2ccccc2SCC(=O)N2CCCC2)on1	nt	0.9
Cc1cccc(C(=O)Nc2nc3c(s2)C(=O)CC(C)(C)C3)c1	nt	0.4
COCCN(CCc1ccncc1)S(=O)(=O)c1cc2[nH]c3c(c2cc1C)C(=O)CCC3	0.633	1.5
Cc1ccc(C(=O)NC(=O)CSc2nnc(C)s2)cc1	0.256	13.5
CCOc1ccc(NC(=O)C2(c3ccccc3)CCOCC2)cc1	nt	1.5
N#CC(C#N)=NNc1ccc2c(c1)OCCO2	nt	4.0
CC(C)C(C)(C#N)NC(=O)CN1CCOCC1 (stereo not given)	nt	-0.3
S=c1n(-c2ccccc2)cnn1CN1CCN(c2ccccn2)CC1	nt	1.8
O=C(O)C1C2C=CC(C2)C1C(=O)NCc1ccccn1 (stereo not given)	-0.608	3.7
O=S(=O)(NCC(c1cccs1)N1CCc2ccccc2C1)c1ccccc1 (stereo not given)	0.104	0.6
S=C(c1ccc(-c2ccccc2)o1)N1CCCCC1	-0.533	1.7
C=CCN(CC=C)C(=O)COc1ccccc1C(N)=O	nt	0.6
COC(=O)C1(S(=O)(=O)C2(C(=O)OC)CCCC2)CCCC1	nt	3.0
O=c1oc2ccccc2cc1Cl	-0.055	-1.2
CCCCC(CC)c1nnc(N)s1 (stereo not given)	-0.176	-0.2
O=C(/C=C/c1cccs1)OCc1nc2ccccc2s1	nt	4.2
CC(C)CN(CC(C)C)Cn1c(=O)oc2ccccc21	nt	-2.4
CCC(=O)N1CCc2cc(Br)cc(S(=O)(=O)Nc3noc4ccccc34)c21	-0.015	-0.6
O=C(NCC(c1ccco1)N1CCCCC1)c1ccc(S(=O)(=O)N2CCCC2)cc1 (stereo not given)	nt	1.7
CCOc1ccc(-n2nnc(C(=O)NCCN3CCOCC3)c2C)cc1	0.356	-0.9
CSc1ccc(S(=O)(=O)NC(C)C)cc1	-1.68	3.5
O=C(O)c1ccccc1SCC(=O)N1CCc2ccccc21	nt	3.4
CC1CCc2onc(C(=O)N3CCCc4ccccc43)c2C1 (stereo not given)	nt	-0.3
CS(=O)(=O)N(CCc1ccccc1)CC(=O)O	-0.859	0.1
COc1ccc(CNS(=O)(=O)c2ccc3c(c2)CCN3C(=O)C2CC2)cc1	-0.055	-1.0
O=C1C2C(C(=O)N1C1CCCCC1)C1C=CC2C12CC2 (stereo not given)	nt	1.2
O=C(C1CC1)N1c2ccccc2CCc2ccccc21	nt	0.7
O=C(NCc1ccccc1)C1CCCN(c2cnccn2)C1 (stereo not given)	-0.253	1.5
Cc1ccc(/C=C/C(=O)OCC(=O)/C=C2\N(C)c3ccccc3C2(C)C)o1	nt	-1.5
C=CCn1c(CNC(=O)c2ccc(OC)cc2)nnc1SCc1nc2ccccc2c(=O)[nH]1	-0.708	-2.2
CCCNC(=O)c1c(O)c2ccccc2n(C)c1=O	0.91	2.0
CCCc1nc2nc(C)c(N)c(=O)n2[nH]1	-0.496	2.4
OC(COCc1ccccc1)CN1CCCC1 (stereo not given)	-1.15	2.4
COc1ccccc1/C=C(\C#N)c1ccc(C)cc1	nt	-0.4
Oc1cccnc1CCc1ccccc1	0.425	1.0
CN(C)C(CNC1CC2CC1C1CCCC21)c1ccco1 (stereo not given)	nt	-0.8
Cc1cc(C)c(C)c(S(=O)(=O)Nc2ccccc2C(=O)NCC(=O)NCc2ccco2)c1C	nt	0.9

Next section
SMILES	LANA-nucl inh	BasE inh
O=C(CCn1cnc2onc(-c3ccc(F)cc3)c2c1=O)NCc1cccc(Cl)c1	nt	4.2
O=C(NCc1n[nH]c(=O)c2ccccc12)NC1CCCCC1	-0.29	-0.6
CCCCNC(=O)c1sc2nc3n(c(=O)c2c1C)CCC3	0.932	-0.4
Cc1nnc(SCC(=O)N/N=C/c2cccc3cccnc23)n1-c1ccccc1	-0.96	1.0
CCC(CC)(C(=O)O)C(=O)O	nt	2.0
COC(=O)C1CSCN1 (stereo not given)	0.614	-2.1
CC[C@H](CO)NCCN[C@H](CC)CO	-0.197	-2.4
CCN(CC)S(=O)(=O)c1ccc(N2CCN(c3ccccc3F)CC2)nc1	nt	3.2
Cc1cn2c(nc1=O)OC1CC2OC1CO (stereo not given)	nt	-4.7
COc1ccc(S(=O)(=O)NCc2cccs2)cc1C(C)(C)C	0.372	-1.9
COc1cccc(CN2CCC(C(=O)N3CCCC(C)C3)CC2)c1 (stereo not given)	-0.161	3.0
Cc1ccc(N(C)C(=O)C2CCCN2S(=O)(=O)c2cccc3nsnc23)cc1 (stereo not given)	-1.38	0.3
O=S(=O)(c1ccc(Cl)cc1)N1CCN(Cn2nnc(-c3ccccc3)n2)CC1	nt	1.4
CCOc1ccc2c(c1)C(C)=CC(C)(C)N2C(=O)Cn1cnc2c1c(=O)n(C)c(=O)n2C	nt	1.9
CC1CN(C(=O)COc2ccccc2)CC(C)O1 (stereo not given)	nt	1.5
COc1cccc(NCc2nnc(SCC(=O)c3ccc(Cl)s3)n2C2CCCCC2)c1	nt	-1.4
Cc1cc(C(=O)CN(C)c2ccccc2)c(C)n1-c1c(C)n(C)n(-c2ccccc2)c1=O	nt	1.2
CSc1nnc(-c2ccc(S(=O)(=O)n3nc(C)cc3C)s2)n1C	nt	-0.4
CCNc1nc(NCC)nc(OCCOC(C)=O)n1	nt	3.4
COc1ccc(-c2cc(-c3ccccc3)c(C#N)c(SC3CCCCC3O)n2)cc1 (stereo not given)	nt	1.3
CCOC(=O)c1cnc(-c2cccc(OC)c2)[nH]c1=O	0.541	2.1
NS(=O)(=O)c1ccc(N2C(=O)CSC2=S)cc1	nt	0.1
CCOc1ccc(C(=O)NC(CC)CC)cc1OCC	-0.013	-0.3
CCCCCCCC(=O)OC[C@H](CO)OC(=O)CCCCCCC	0.788	-5.3
COc1ccc(-c2cc(C)no2)cc1S(=O)(=O)NCCN1CCN(c2ccccc2)CC1	nt	-0.1
COc1ccc(NC(=O)CCN2CCOCC2)cc1	-0.885	1.4
CCOC(=O)c1cc(-c2ccco2)nn1-c1ccc(C)cc1C	nt	-2.3
Cc1ccc(NC(=O)COC(=O)CN2CSCC2=O)cc1C	nt	-0.7
Cc1cc(=O)n(Cc2ccc(Cl)cc2)c(SCC(N)=O)c1C#N	nt	4.8
N#C/C(=C(/O)c1cccc(Cl)c1)c1nc2ccccc2s1	0.214	0.6
Cc1ccc(C)c(C(=O)COC(=O)c2cccc(C(=O)OCC(=O)c3cc(C)ccc3C)n2)c1	nt	1.1
CCC(C)(C)NC(=O)Cn1c(C)csc1=O	nt	7.1
CCNc1nc(NCC)nc(NNS(=O)(=O)c2cc(Br)ccc2Br)n1	nt	-3.0
Cn1ncc(C(=O)O/N=C/c2ccc(OC(F)(F)F)cc2)c1-n1cccc1	0.524	2.0
O=C(CN=C1NS(=O)(=O)c2ccccc21)N1CCC(c2nc3ccccc3s2)CC1	nt	-2.9
Cc1ccc(NC(=O)COC(=O)C2=NC=CN3CCS(=O)(=O)N=C23)cc1	nt	1.2
O=C(CSc1nncs1)NCCN1C(=O)CSC1=O	nt	-1.4
CCCCOC(C)n1ccc(=O)[nH]c1=O (stereo not given)	-0.935	0.6
Clc1cc2c(c3ncccc13)OCN(CCC1=CCCCC1)C2	nt	-0.6
N=c1ccn(CC(=O)N2CCCc3ccccc32)c2ccccc12	0.714	-4.6

Structural class: the entries above with a thiophene ring, fused or not
SMILES	LANA-nucl inh	BasE inh
O=S(=O)(NCC(c1cccs1)N1CCc2ccccc2C1)c1ccccc1 (stereo not given)	0.104	0.6
O=C(/C=C/c1cccs1)OCc1nc2ccccc2s1	nt	4.2
CCCCNC(=O)c1sc2nc3n(c(=O)c2c1C)CCC3	0.932	-0.4
COc1ccc(S(=O)(=O)NCc2cccs2)cc1C(C)(C)C	0.372	-1.9
COc1cccc(NCc2nnc(SCC(=O)c3ccc(Cl)s3)n2C2CCCCC2)c1	nt	-1.4
CSc1nnc(-c2ccc(S(=O)(=O)n3nc(C)cc3C)s2)n1C	nt	-0.4

New compounds follow
SMILES	LANA-nucl inh	BasE inh
COc1ccccc1NC(=S)N/N=C1/C=C(C)CC1	nt	-0.2
Cc1ccc(SC(=O)c2ccc(C#Cc3ccccc3)o2)cc1	nt	1.0
N#Cc1ccc(Oc2ccc(NC(=O)c3ccc(Br)o3)cc2)cc1	-0.854	0.5
CNC(=O)CSc1nc2ccccc2[nH]1	nt	0.4
Cc1ccc(-c2cc(C)n3nc(N4CCOCC4)c(C#N)c3n2)cc1	nt	1.1
O=C(N/N=C/c1ccc(F)cc1)c1ccc(NC(=O)C2CC2)cc1	2.58	-4.7
CCOc1ccccc1NC(=O)C1CCC(=O)N1S(=O)(=O)c1ccc(C)cc1 (stereo not given)	-0.293	3.3
CCn1c(NNC(=O)c2cccnc2)nc2ccccc21	-0.754	7.3
Cc1cc2n(n1)C(c1ccccc1)Nc1ccccc1-2 (stereo not given)	0.419	0.0
COc1ccccc1NC(=S)Nc1ccccc1	nt	0.0
CCCC1c2cccn2CCN1C(=O)NCc1ccccc1 (stereo not given)	0.466	0.0
CC(Sc1ncnc2c1oc1ccccc12)C(=O)c1ccc(F)cc1 (stereo not given)	nt	4.8
O=C(CN1C(=O)C2CC=CCC2C1=O)OCc1nnc(-c2ccccc2Br)o1 (stereo not given)	nt	1.1
CC1(C)CC(=O)c2cnn(-c3nc4ccccc4[nH]3)c2C1	0.583	-0.5
O=C(Cc1ccccc1F)Nc1ccnn1Cc1ccccc1	nt	2.3
CC1(C)N([O-])C2=C(CCCC2)[N+]1=O	-0.227	-0.1
S=c1n(CN2CCOCC2)nc(Cc2cccs2)n1C1CCCCC1	nt	0.2
COc1ccccc1NC(=O)C1=C(C)NC(=S)NC1C (stereo not given)	-0.714	1.9
NC(=O)CSc1nnc(COc2ccccc2)n1C1CCCCC1	0.778	-0.7
COc1ccc(/C=C2/C(=N)N3OC(C)=CC3=NC2=O)cc1	-1.04	2.6

Fetched one by one from the list above:
SMILES	LANA-nucl inh	BasE inh
Cc1ccc(SC(=O)c2ccc(C#Cc3ccccc3)o2)cc1	nt	1.0
COc1ccccc1NC(=S)Nc1ccccc1	nt	0.0

Next part:
SMILES	LANA-nucl inh	BasE inh
CCOC(=O)CSc1nc(SCC(=O)OCC)c2c3c(sc2n1)CCC3	nt	-0.4
O=c1ccc(-c2ccc(S(=O)(=O)NCCCc3ccco3)s2)n[nH]1	0.568	0.5
COC(=O)Nc1ccc(S(=O)(=O)C(F)F)cc1	-0.737	-1.0
Cc1c(NC(=O)COC(=O)c2ccc(S(=O)(=O)N3CCCC3)cc2)c(=O)n(-c2ccccc2)n1C	nt	0.2
CCN(CC)C(=O)C1=C(C)Nc2nnnn2C1c1cccnc1 (stereo not given)	-1.04	3.2
c1csc(-c2nnc3n2-c2ccccc2SC3)c1	nt	-3.0
Cc1cc2occ(CC(=O)OC(C)C(=O)NC3(C#N)CCCCC3)c2cc1C (stereo not given)	nt	0.6

A second format for some results above:
Under each structure: LANA-nucl inh | BasE inh
> c1csc(-c2nnc3n2-c2ccccc2SC3)c1
 : nt | -3.0
> COC(=O)Nc1ccc(S(=O)(=O)C(F)F)cc1
 : -0.737 | -1.0
> CCN(CC)C(=O)C1=C(C)Nc2nnnn2C1c1cccnc1 (stereo not given)
 : -1.04 | 3.2
> O=c1ccc(-c2ccc(S(=O)(=O)NCCCc3ccco3)s2)n[nH]1
 : 0.568 | 0.5
> Cc1c(NC(=O)COC(=O)c2ccc(S(=O)(=O)N3CCCC3)cc2)c(=O)n(-c2ccccc2)n1C
 : nt | 0.2
